# Bioassay records deposited in PubChem BioAssay by several laboratories.
# Arbovirus anti: antivirals against arbovirus infection. arbovirus infection cell-based antiviral screen. AID 1251. 200,000 tested, 0.37% active. inhibition, % at 10 µM;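 active = inhibition from about 30%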;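 also: bluetongue infection of BSR cells; cell survival read as ATP light after 72 h; 0% = infected wells without compound and 100% = uninfected wells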
# Mtb betalactam: beta-lactam sensitization of Mtb H37Rv | 330,000 tested, 0.27% active | M. tuberculosis H37Rv growth with meropenem, percent inhibition; hits of this screen are not shown here | inhibition, % at 25 µM;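 active = about 74% or more and at least 40 points above the plate without the antibiotic, then above 30% in a dose series; inconclusive = first-round hits that could not be retested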;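 also: growth measured after seven days incubation then overnight dye step; 0% = bacteria only wells and 100% = bacteria with antibiotic; twin plates without the antibiotic show which effects depend on it; some results filed as inactive read as strong as hits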
# YopH inh: inhibitors of Yersinia enterocolitica YopH tyrosine phosphatase | inhibition, %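 (about 10 µM by stock and volumes)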 | AID 898 | 140,000 tested, 0.16% active | fluorescence Ex485/Em525;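 active = inhibition of 50% or more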;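 also: controls were vehicle for no effect and minimum signal wells for full effect; inactives centre near -20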
# Mtb H37Rv: M. tuberculosis H37Rv growth inhibitors, H37Rv strain (AID 1626); M. tuberculosis H37Rv growth inhibition; higher % means a stronger effect; inhibition, % at 10 µM, or IC50 in µM where a hit was titrated; 220,000 tested, 0.95% active;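 active = confirmed in a dose series; inconclusive = inhibition above 80% but not taken into the dose series; inactive = below 80% or under 30% at every dose of the series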;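 also: bacteria incubated seven days before Alamar blue readout; 0% = bacteria only wells and 100% = bacteria with antibiotic wells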
# RecA intein inh: blocks M. tuberculosis RecA intein splicing | AID 2221 | P9WHJ3 | 290,000 tested, 0.75% active | cell-free RecA intein splicing, fluorescence | inhibition, %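 (about 9 µM by stock and volumes)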; in the data active = inhibition above about 30%; inconclusive = no clear call, values can overlap the other calls;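 also: 0% = vehicle wells and 100% = reference inhibitor control wells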
# Target sequence (P9WHJ3 whole entry, looked up): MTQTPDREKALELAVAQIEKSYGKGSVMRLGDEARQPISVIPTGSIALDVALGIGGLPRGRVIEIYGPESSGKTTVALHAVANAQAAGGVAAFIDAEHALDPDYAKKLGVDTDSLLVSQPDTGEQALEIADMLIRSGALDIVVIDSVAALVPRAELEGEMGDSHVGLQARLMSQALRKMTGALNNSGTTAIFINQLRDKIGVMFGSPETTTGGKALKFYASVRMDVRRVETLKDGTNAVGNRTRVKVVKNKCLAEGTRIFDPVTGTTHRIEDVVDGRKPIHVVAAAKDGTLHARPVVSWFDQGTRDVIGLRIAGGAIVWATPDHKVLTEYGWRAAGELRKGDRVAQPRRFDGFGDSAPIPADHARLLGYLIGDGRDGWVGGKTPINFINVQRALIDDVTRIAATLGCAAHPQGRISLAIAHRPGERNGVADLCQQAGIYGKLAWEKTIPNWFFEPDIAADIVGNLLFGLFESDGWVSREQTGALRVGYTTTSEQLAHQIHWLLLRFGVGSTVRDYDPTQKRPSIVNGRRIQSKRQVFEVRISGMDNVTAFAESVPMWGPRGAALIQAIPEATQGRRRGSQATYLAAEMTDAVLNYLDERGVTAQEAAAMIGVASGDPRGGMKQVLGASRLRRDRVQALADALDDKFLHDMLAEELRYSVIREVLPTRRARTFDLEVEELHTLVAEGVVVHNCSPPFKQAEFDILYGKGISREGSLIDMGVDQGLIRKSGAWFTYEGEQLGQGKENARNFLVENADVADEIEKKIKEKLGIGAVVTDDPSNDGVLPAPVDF
# Arbovirus anti repeat: further read-out of Arbovirus anti, marked with its call; inhibition, %; measured here: 10K subset replicate screen; many hits read low in the repeat;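 first of two repeat runs on a subset; 0% = infected and 100% = uninfected wells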
# The depositor's hits bear a star; ? = inconclusive; . = not tested or not shown. This is a subset; count on the stated rates, not on these rows.
SMILES,Arbovirus anti,Mtb betalactam,YopH inh,Mtb H37Rv,RecA intein inh,others
O=C(CS(=O)(=O)Cc1ccccc1)NCc1ccccc1Cl,.,-9,.,.,-0.4,
Cc1ccc(-c2cc(C(=O)Nc3ccc(S(=O)(=O)N4CC(C)OC(C)C4)cc3)[nH]n2)c(O)c1 (stereo not given),.,-2,.,0%,2.7,
COc1ccc(CCN2C(=O)CSC2=Nc2ccc(C(C)C)cc2)cc1OC,.,-5,.,-1%,12,
Cc1nnc(N2C(=O)C(O)=C(C(=O)c3ccco3)C2c2ccc(C(C)(C)C)cc2)s1 (stereo not given),-3,-15,-35,-5%,-1.1,
Fc1cccc(CN2CCC(Cc3ccccc3)CC2)c1,.,-5,.,.,-0.3,
Cc1onc(-c2ccccc2)c1NC(=O)N(Cc1ccccc1)C(C)C,.,1,.,7%,-0.4,
COc1cccc(N2CCN(c3nc(-c4ccccc4C)cc(=O)[nH]3)CC2)c1,.,39,.,.,-0.9,
CC(C)Cc1nn2c(N)c(/C=C3\C=Nc4ccccc43)c(=O)nc2s1,37*,-7,.,8%,.,
O=C(COC(=O)c1ccc(Cl)c(S(=O)(=O)N2CCCC2)c1)NC1CCCC1,9,6,-31,8%,0.8,
CC(=O)C(N=Nc1ccccc1)(Sc1nnc(-c2ccccc2)n1-c1ccccc1)C(=O)Nc1ccccc1 (stereo not given),-8,-21,-30,-3%,-4.8,
OC(COc1ccc2cc(Br)ccc2c1)Cn1ccnc1 (stereo not given),.,82,.,.,-0.1,
COc1cc(C2CC(c3ccccc3)=NN2c2ccccc2)ccc1OCC(=O)O (stereo not given),.,0,.,.,-84,
COc1ccc(C(=O)N/C(=C\c2ccccc2)C(=O)NC(CCSC)C(=O)O)cc1 (stereo not given),-4,1,-3,-6%,-0.8,
COc1ccccc1N1CCN(C2CCCN(Cc3c(F)cccc3F)C2)CC1 (stereo not given),.,4,.,.,-1.6,
Oc1c(Br)cccc1/C=N/Nc1c(F)c(F)c(F)c(F)c1F,20,-8,-21,46%,8.5,
CCOC(=O)CNC(=O)C1c2ccccc2Oc2ccccc21,.,0,.,.,-5.3,
CC(C)CCn1c(N2CCN(c3cccc(Cl)c3)CC2)nc2c1c(=O)[nH]c(=O)n2C,-4,-1,-38,4%,1.4,
O=C1C(O)=C(O)C(=O)c2ccccc21,.,2,.,-2%,.,
Cc1cccc(N(C(=O)Cc2cccs2)C(C(=O)NCc2ccco2)c2ccncc2)c1 (stereo not given),0,-2,.,-11%,1.1,
CCc1ccc(C(C(=O)NC2CCCCC2)N(C(=O)c2csnn2)C2CC2)cc1 (stereo not given),.,-4,.,.,1.7,
Cc1nc2c(C#N)cnn2c2c1CCN(Cc1ccccc1)N2C,5,-7,.,4%,-1.9,
COC(=O)CSc1nnc(-c2ccc(S(=O)(=O)N3CCCCC3)cc2)o1,-5,99,-42,69%,0.5,
Cc1cccc(C)c1NC(=O)CCN1C(=O)C2C3CCC(C3)C2C1=O (stereo not given),2,8,-6,-7%,-0.2,
O=c1cc(CN2CC=C(c3ccccc3)CC2)c2c(ccc3ccccc32)o1,8,-2,-25,-1%,1.3,

# Ordered by molecular weight (lowest first): 3 of the compounds above
SMILES,Arbovirus anti,Mtb betalactam,YopH inh,Mtb H37Rv,RecA intein inh,others
Cc1cccc(C)c1NC(=O)CCN1C(=O)C2C3CCC(C3)C2C1=O (stereo not given),2,8,-6,-7%,-0.2,
O=c1cc(CN2CC=C(c3ccccc3)CC2)c2c(ccc3ccccc32)o1,8,-2,-25,-1%,1.3,
Oc1c(Br)cccc1/C=N/Nc1c(F)c(F)c(F)c(F)c1F,20,-8,-21,46%,8.5,

# Molecules listed so far that contain an NH in an aromatic ring (3):
SMILES,Arbovirus anti,Mtb betalactam,YopH inh,Mtb H37Rv,RecA intein inh,others
Cc1ccc(-c2cc(C(=O)Nc3ccc(S(=O)(=O)N4CC(C)OC(C)C4)cc3)[nH]n2)c(O)c1 (stereo not given),.,-2,.,0%,2.7,
COc1cccc(N2CCN(c3nc(-c4ccccc4C)cc(=O)[nH]3)CC2)c1,.,39,.,.,-0.9,
CC(C)CCn1c(N2CCN(c3cccc(Cl)c3)CC2)nc2c1c(=O)[nH]c(=O)n2C,-4,-1,-38,4%,1.4,

# (continued)
SMILES,Arbovirus anti,Mtb betalactam,YopH inh,Mtb H37Rv,RecA intein inh,others
O=C(O)c1ccc(Cn2c(=S)[nH]c3cc(Cl)ccc3c2=O)cc1,.,-6,.,.,2.6,
COC(=O)c1c(NC(=O)COC(=O)CCNS(=O)(=O)c2ccccc2)sc(C)c1C,.,-16,.,.,2.9,
Cc1cccc(Oc2ncnc3onc(C)c23)c1,2,8,-33,-1%,0.9,
CC1(C)C2CC[C@]3(C)C(CC=C4[C@@H]5C[C@](C)(CO)CC[C@]5(C(=O)O)CC[C@]43C)[C@@]2(C)CC[C@@H]1O (stereo not given in full),.,-3,.,-12%,3.2,
COc1ccc(N2CC(NC(=O)c3ccc4ccccc4c3)CC2=O)cc1OC (stereo not given),.,3,.,.,0.5,
COc1ccccc1CCC(=O)OCC(=O)Nc1ccc(S(N)(=O)=O)cc1,6,-1,.,-2%,-0.5,
Cn1nc(C(F)(F)F)c(-c2ccccc2)c1N,.,-3,.,-2%,-0.5,
COCCn1c(C)cc(C(=O)COC(=O)c2ccc(Br)o2)c1C,4,15,.,62%,.,
O=C(Cn1c(=O)oc2ccccc21)Nc1ccccc1N1CCOCC1,13,-6,.,3%,-0.3,
Brc1ccc(-c2cn3c(n2)SCC3)cc1,-1,5,.,-8%,-0.4,
Cc1ccc(S(=O)(=O)NNC(=O)C2COc3ccccc3O2)cc1 (stereo not given),3,0,-34,6%,-1.1,
Fc1ccc(C2=CC(c3ccc(Br)o3)n3ncnc3N2)cc1 (stereo not given),7,9,6,9%,.,

# The closing 2 records of the part above come first, to join the parts.
SMILES,Arbovirus anti,Mtb betalactam,YopH inh,Mtb H37Rv,RecA intein inh,others
Cc1ccc(S(=O)(=O)NNC(=O)C2COc3ccccc3O2)cc1 (stereo not given),3,0,-34,6%,-1.1,
Fc1ccc(C2=CC(c3ccc(Br)o3)n3ncnc3N2)cc1 (stereo not given),7,9,6,9%,.,
CCOc1ccc(C)cc1-n1nc2ccccc2n1,-3,6,-23,4%,.,
COc1ccccc1NC(=O)C1C2C=CC(O2)C1C(=O)O (stereo not given),-1,-4,-3,-3%,0.8,
CCN1CCC2(CC1)N=C(c1ccc(F)cc1)C(=S)N2C(=O)c1ccc(C(C)(C)C)cc1,-32,-2,22,-1%,10,
CCOc1ccccc1NC(=O)Nc1cc(OC)ccc1OC,2,-2,-2,1%,0.7,
Cc1cccc(/N=C/c2c(O)[nH]c3ccccc23)n1,-2,4,-34,-1%,.,
Cc1ccc(S(=O)(=O)Cc2ccc(C(=O)N3CCC(C)CC3)cc2)cc1,.,-12,.,.,-2.7,
CCn1nc(C)cc1C(=O)N1CCCC(N(C)CCc2ccc(OC)c(OC)c2)C1 (stereo not given),.,-3,.,.,0.6,
CCOC(=O)c1cnc(SC)nc1Oc1cccc(NS(=O)(=O)c2ccc(C)cc2)c1,-6,3,-37,-2%,.,
CCOc1ccc(N2CC(C(=O)Oc3ccccc3)CC2=O)cc1 (stereo not given),10,2,-42,-2%,8.1,
COc1cc(C(=O)c2c(C)c(CCC#N)n3ccccc23)cc(OC)c1OC,-18,4,.,2%,5.7,
COc1ccc2nc(SCc3cccc(C)c3)nc(C)c2c1,10,88,-32,-1%,-1.0,
COC(=O)CCC(=O)Nc1ccc(S(=O)(=O)N2CCc3ccccc32)cc1,.,-2,.,.,-1.0,
Cc1ccc(NC(=O)c2cnn(-c3ccccc3)c2NC(=O)c2ccco2)cc1,-17,5,-53,8%,-1.0,
CC(=O)Nc1ccc(S(=O)(=O)Nc2ccc3c(c2)OCCO3)cc1Cl,.,-6,.,4%,-0.8,
COc1ccccc1Nc1ncc(C(=O)Nc2ccc(OC)c(OC)c2)c2ccccc12,-2,8,24,-1%,-15,
Cc1oc(-c2ccccc2)nc1CN1C(=O)C(C)N=C(c2ccccc2F)c2cc(Cl)ccc21 (stereo not given),-13,-4,-17,.,19,
CC(C)OCCCn1c(=O)c2ccccc2n2c(CCC(=O)O)nnc12,.,-7,.,.,-0.2,
O=C(O)C1CCN(C(=O)CSc2nc3ccccc3s2)CC1,2,-4,.,4%,0.3,
N#CC[C@H](Cc1ccccc1)N1CCN(CCc2ccccc2)CCC1=O,.,-9,.,.,-0.3,
CCOc1ccc(NC(=O)Cn2cc(C(=O)CC)c3ccccc32)cc1,.,7,.,.,-0.9,
COC(=O)c1ccccc1NC(=O)C1CCCN(c2nnc(-n3cccc3)s2)C1 (stereo not given),8,99,-29,?,0.7,Arbovirus anti repeat=5
O=C(Cc1ccccc1)Nc1ccc(Cl)cn1,.,-2,.,.,-1.7,
Cc1nn(C(=O)c2cccnc2)c(C)c1Sc1ccccc1,2,7,-30,13%,20,
COc1ccc(CCC(C)N(C)Cc2ccccc2)cc1 (stereo not given),.,-3,.,.,-1.7,

# Molecules above that have a tert-butyl group (two):
SMILES,Arbovirus anti,Mtb betalactam,YopH inh,Mtb H37Rv,RecA intein inh,others
Cc1nnc(N2C(=O)C(O)=C(C(=O)c3ccco3)C2c2ccc(C(C)(C)C)cc2)s1 (stereo not given),-3,-15,-35,-5%,-1.1,
CCN1CCC2(CC1)N=C(c1ccc(F)cc1)C(=S)N2C(=O)c1ccc(C(C)(C)C)cc1,-32,-2,22,-1%,10,

# Next part:
SMILES,Arbovirus anti,Mtb betalactam,YopH inh,Mtb H37Rv,RecA intein inh,others
O=C(c1cccs1)c1coc2ccc(O)c(CN(CCO)CCO)c12,6,?,-22,-4%,1.4,
CCOc1ccc(/C=C2\SC(=O)N(CCNC(=O)CN3C(=O)NC4(CCCC4)C3=O)C2=O)cc1OC,.,-4,.,.,-1.3,
Cc1ccc(C)c(OCC(=O)Nc2ccccc2C(=O)N2CCN(C)CC2)c1,.,-5,.,.,-4.6,
CC(/C=N/n1c(-c2cc(C)[nH]n2)n[nH]c1=S)=C\c1ccco1,.,-1,.,-5%,.,
CCN(CC)C(=O)c1[nH]cnc1C(=O)N[C@@H](CC(C)C)C(=O)OCc1ccccc1,3,-7,.,-5%,2.7,
Cc1cccc(NC(=O)Cc2cccs2)n1,2,-4,-28,-15%,4.2,
CC(C)CC(NS(=O)(=O)c1ccc2[nH]c(=O)c(=O)[nH]c2c1)C(=O)O (stereo not given),3,-6,.,1%,1.1,
O=C1NCCCN1Cc1ccc(F)cc1,2,-4,-16,-3%,0.7,
CCC(C)c1ccccc1N1CC(C(=O)Nc2cccc(S(=O)(=O)N3CCOCC3)c2)CC1=O (stereo not given),.,-11,.,.,0.8,
CCOc1ccc(C(=O)c2cc3ccc(O)cc3oc2=O)cc1,-3,2,.,-8%,-1.6,
C=CCOc1ccc(CNC(C)(C)CO)cc1OC,2,8,-11,4%,-2.2,
CC(C)NC(=O)/C(=C/c1cn(-c2ccccc2)nc1-c1cccc([N+](=O)[O-])c1)NC(=O)c1ccccc1,5,1,-17,15%,0.7,
COc1ccc(-n2nc(C(=O)NCC(=O)NCCCN3CCOCC3)c3ccccc3c2=O)c(OC)c1,.,1,.,.,0.5,
CC1CC2C3CCC4=CC(=O)C=CC4(C)[C@@]3(Cl)C(O)CC2(C)C1(O)C(=O)CO (stereo not given in full),.,2,.,-2%,3.5,
CCCOc1ccc(C(=O)CCCC(=O)c2ccc(OCCC)cc2)cc1,.,8,.,.,-2.5,
COc1ccccc1NS(=O)(=O)c1cc(C(=O)N2CCCCCCC2)ccc1C,.,-3,.,.,0.3,
C=CCn1c(C(C)NC(=O)c2cccc(C)c2)n[nH]c1=S (stereo not given),3,-9,.,-7%,-1.1,
N=C(N)SCP(=O)(c1ccccc1)c1ccccc1,.,7,.,4%,5.7,
Cc1nn(-c2ccccc2)c2nc(=O)n(-c3ccccc3)cc12,2,0,-42,2%,-0.1,
CCCn1c(N)c(CC)c(=O)[nH]c1=O,3,-11,.,3%,0.6,
Cc1cccn2c(CN3CCSCC3)c(C(=O)N3CCOCC3)nc12,2,-11,.,3%,-2.3,
COc1cccc(CN2CCSCC2)c1,13,1,-25,-6%,-0.8,
O=C(C1CCCN1S(=O)(=O)c1ccc(Cl)cc1)N1CCOCC1 (stereo not given),2,-7,-41,0%,0.9,
CCOc1ncccc1C(=O)N1CCCSC1=Nc1ccccc1OC,-10,2,.,1%,4.0,
O=C(CSc1nnc(CNc2ccc(F)cc2)n1-c1ccccc1)N1CCOCC1,6,-5,-2,-20%,0.6,
CCOC(=O)C1(CCOC)CCN(Cc2ccc(C3CCCCO3)s2)CC1 (stereo not given),5,-5,.,5%,3.6,
